Assay outcomes: PubChem, National Center for Advancing Translational Sciences (NCATS)
VACV mCherry inh: inhibitors of vaccinia virus infection (mCherry reporter signal); Vaccinia virus mCherry reporter infection, fluorescence; about a quarter of the inactives have no number; Potency, µM (top dose mostly 36.5 µM), for inactives: top-dose activity change, negative = inhibition, most hits filed as inhibitors; 0.63% of 310,000 active; AID 720579; active = well fitted inhibition curve with a large enough effect; inconclusive = small, poorly fitted or top-dose-only effect; inactive = no such curve, though single readings can be large or run the other way; tested in A549 cells; further: nearly all actives have a fitted effect of over 35% in size; inactives centre near -10
VACV Venus inh: vaccinia inhibition (Venus reporter); Potency, µM (series often up to 36.5 µM), inactives show at the highest dose activity change, negative = inhibition, usual class: inhibitors; 0.46% of 330,000 active; Vaccinia virus Venus reporter expression, fluorescence; AID 720580; active means well fitted inhibition curve with a large enough effect; inconclusive means small, poorly fitted or top-dose-only effect; inactive means no such curve, though single readings can be large or run the other way; tested in A549 cells; further: nearly all actives have a fitted effect of over 30% in size; inactives centre near -10
An asterisk follows results filed as active; i = inactive; ? = inconclusive; . = no result given; & = joins results of further samples; [ ] = dose if it differs, or a comment. On the % scale 0 is the no-effect control and ±100 the full control effect; potency means the concentration at half of the fitted maximal effect. No enrichment for hits; 0.87% or so of the library scored in one or more.

(1) CCN(CC)S(=O)(=O)c1ccc2c(c1)N(CC(=O)NCCc1ccccc1)C(=O)CO2
(2) COc1ccc(CNC(=O)CN2C(=O)COc3ccc(S(=O)(=O)N4CCCCC4)cc32)cc1
(3) COc1ccc(S(=O)(=O)N2CCC(N3CCN(Cc4ccc(F)cc4)C(=O)C3=O)CC2)cc1
(4) CCOC(=O)c1c(NC(=O)c2ccoc2C)sc(C(=O)N(C)C)c1C
(5) CN(C)/C=N/C(=S)Nc1ccc(F)cc1
(6) CC(C)(C)C(=O)Oc1cc(N)n(S(=O)(=O)c2ccccc2)n1
(7) Cc1ccc(CN(C)C(=O)c2cccc(S(=O)(=O)N3CCc4ccccc43)c2)cc1
(8) CN(C)c1ccc(/C=N/NC(=O)COc2ccccc2)cc1

assay / compound	1	2	3	4	5	6	7	8
VACV mCherry inh	-2%	-3%	-3%	i	.	-17%	-9%	-4%
VACV Venus inh	-20%	-3%	-7%	-18%	-6%	-10%	-27%	-9%

One compound at a time (already shown):
Entry for CN(C)c1ccc(/C=N/NC(=O)COc2ccccc2)cc1 → VACV mCherry inh: -4%; VACV Venus inh: -9%
Entry for COc1ccc(S(=O)(=O)N2CCC(N3CCN(Cc4ccc(F)cc4)C(=O)C3=O)CC2)cc1 → VACV mCherry inh: -3%; VACV Venus inh: -7%

The list goes on:
(9) CCOC(=O)N1CCC(NC(=O)CSc2cc(=O)n(C)c3ccccc23)CC1
(10) CC(=O)Nc1ccc(OS(=O)(=O)c2ccc(C)cc2C)cc1
(11) CC1(c2ccc(Cl)cc2)NC(=O)N(CC(=O)NC(=O)NCc2ccco2)C1=O (configuration not stated)
(12) CCc1ccc(C(=O)NNC(=O)c2cc(S(=O)(=O)N(C)C)ccc2N2CCCC2)cc1
(13) O=C1C2C3C=CC(C3)C2C(=O)N1CCc1ccccc1 (configuration not stated)
(14) NC(=O)c1cc[n+](Cc2ccccc2Cl)cc1
(15) Cc1cccc(N2CCN(C(=O)c3cnn(-c4ccccc4Cl)c3C3CCN(C(=O)OC(C)(C)C)CC3)CC2C)c1 (configuration not stated)
(16) CSc1ncccc1C(=O)OCC(=O)c1cc(C)n(C)c1C

assay / compound	9	10	11	12	13	14	15	16
VACV mCherry inh	i	i	-16%	-12%	i	-11%	-8%	-1%
VACV Venus inh	?	-13%	-16%	-7%	0%	-9%	-12%	-11%

Compounds shown so far containing four or more nitrogen atoms (3):
(11) CC1(c2ccc(Cl)cc2)NC(=O)N(CC(=O)NC(=O)NCc2ccco2)C1=O (configuration not stated)
(12) CCc1ccc(C(=O)NNC(=O)c2cc(S(=O)(=O)N(C)C)ccc2N2CCCC2)cc1
(15) Cc1cccc(N2CCN(C(=O)c3cnn(-c4ccccc4Cl)c3C3CCN(C(=O)OC(C)(C)C)CC3)CC2C)c1 (configuration not stated)

assay / compound	11	12	15
VACV mCherry inh	-16%	-12%	-8%
VACV Venus inh	-16%	-7%	-12%

Returning to the listing with the four entries that preceded the break.
(13) O=C1C2C3C=CC(C3)C2C(=O)N1CCc1ccccc1 (configuration not stated)
(14) NC(=O)c1cc[n+](Cc2ccccc2Cl)cc1
(15) Cc1cccc(N2CCN(C(=O)c3cnn(-c4ccccc4Cl)c3C3CCN(C(=O)OC(C)(C)C)CC3)CC2C)c1 (configuration not stated)
(16) CSc1ncccc1C(=O)OCC(=O)c1cc(C)n(C)c1C
(17) CCOC(=O)CN(C)Cc1cn[nH]c1-c1ccc2cc(OC)ccc2c1
(18) CC(=O)Nc1ccc(C(=O)N2CCCC(c3cc(C(=O)NCc4ccccc4)no3)C2)cc1 (configuration not stated)
(19) CCn1c(SCc2nc(-c3cccs3)no2)nnc1-c1c[nH]c2ccccc12
(20) Nc1ccc(-c2nc3ccccc3[nH]2)cc1
(21) CC(=O)Nc1ccc(N(C(=O)c2cnccn2)C(C(=O)NC2CCCCC2)c2ccc(F)cc2)cc1 (configuration not stated)
(22) CCCNC(=O)CN1C(=O)COc2ccc(S(=O)(=O)N3CCC(C)CC3)cc21
(23) Brc1cccc(-c2nnc(SCc3nc4ccccc4[nH]3)o2)c1
(24) COc1ccc(CC(=O)Oc2cc(C)ccc2C)cc1

assay / compound	13	14	15	16	17	18	19	20	21	22	23	24
VACV mCherry inh	i	-11%	-8%	-1%	-2%	i	i	30%[activator]	-13%	-9%	10µM*	i
VACV Venus inh	0%	-9%	-12%	-11%	-20%	5%	-9%	7%	-8%	3%	?	-4%

(25) CCCN(C(=O)COC(=O)Cn1c(=O)oc2ccccc21)c1c(N)n(Cc2ccccc2)c(=O)[nH]c1=O
(26) Cc1ccc(/C=C2\SC(N)=NC2=O)s1
(27) CCOC(=O)/C(=C\c1ccc(OC(F)F)cc1)C1=Nn2c(nnc2-c2ccc(Cl)cc2)SC1
(28) CCOC(=O)C1C(=O)C=C(c2ccc(OC)cc2)CC1c1ccco1 (configuration not stated)
(29) C=CCNC(=S)NNC(=O)C(CC(C)C)CC(C)O (configuration not stated)
(30) Cc1ccc(CC2C(=O)N(c3ccccc3)C(=O)C2C)cc1 (configuration not stated)
(31) COC(=O)[C@@H]1C[C@H]2CC[C@H](O)C[C@H]2N1Cc1ccc(C(C)(C)C)cc1
(32) COc1ccc(N=CC2=C(O)CC(C)(C)CC2=O)cc1OC

assay / compound	25	26	27	28	29	30	31	32
VACV mCherry inh	-6%	-2%	?	-19%	-6%	-8%	i	-23%
VACV Venus inh	2%	-18%	13µM*	2%	-1%	-14%	-17%	-11%

(33) c1ccc(-c2noc(CC3CCCCC3)n2)cc1
(34) CCOC(=O)[C@]12CCC=C1N(Cc1ccc3c(c1)OCO3)C(=O)[C@H](CC(=O)NCCC(C)C)C2
(35) CC(=O)N1c2ccc(S(=O)(=O)N3CCC(C(=O)NCc4ccc(N(C)C)cc4)CC3)cc2CC1C (configuration not stated)
(36) CN1OC[C@@H]2CN[C@H](c3cccc(-c4ccc(C#N)cc4)c3)C[C@@H]21
(37) CCCCC1(CC)COP(=O)(OCC(Cl)(Cl)Cl)OC1 (configuration not stated)
(38) CC1=C(C(=O)N(C)C)CC(CC(=O)NCc2cccs2)C(=O)N1Cc1ccc(C(C)(C)C)cc1 (configuration not stated)
(39) Cc1cc(C(=O)N/N=C/c2ccc(-c3ccc([N+](=O)[O-])cc3C)o2)n[nH]1
(40) CCc1cc2c(N[C@@H](Cc3c[nH]c4ccccc34)C(=O)O)ncnc2s1

assay / compound	33	34	35	36	37	38	39	40
VACV mCherry inh	-15%	-14%	-12%	-13%	-5%	i	i	i
VACV Venus inh	-1%	-9%	4%	-10%	-2%	-21%	-7%	-13%

(41) CCN1CCN(Cc2ccc(C(=O)Nc3ccc(C)c(NCc4cnc(NC(=O)OC)cn4)c3)cc2C(F)(F)F)CC1
(42) CCN(CC)C(=O)CSc1nnc(COc2ccccc2)n1N
(43) Cc1ccc(N2CC(C(=O)NCc3cccs3)CC2=O)cc1C (configuration not stated)
(44) COc1ccc(CC(=O)NCCCc2ccccc2)cc1OC
(45) C=C(Cl)COc1ccc2c(CCC)cc(=O)oc2c1
(46) Cc1ccc(S(=O)(=O)N2CCC(C(N)=O)CC2)c(C)c1C
(47) O=C(CN1CCN(S(=O)(=O)c2ccc(Br)s2)CC1)N1CCc2ccccc21
(48) CC(C(C(=O)N1CCCCC1)N1CCCCC1)N1CCCCC1 (configuration not stated)

assay / compound	41	42	43	44	45	46	47	48
VACV mCherry inh	-20%	i	-23%	i	.	-14%	-22%	-14%
VACV Venus inh	-11%&-13%	-13%	-19%	-10%	-14%	-14%	?	5%

(49) COc1cccc(C2CC(=O)Nc3cc4c(cc32)OCO4)c1OC(C)C (configuration not stated)
(50) CCC1CCc2c(sc(NC(=O)CSc3nc(-c4ccco4)cc(C(F)(F)F)n3)c2C#N)C1 (configuration not stated)
(51) COc1ccccc1N1C(=O)CC(Sc2ccccc2N)C1=O (configuration not stated)
(52) CC(C)[C@H](NC(=O)c1ccccc1F)C(=O)NCc1ccc(S(N)(=O)=O)cc1
(53) CN(C(=O)c1cccc(NC(=O)Cc2ccc(NC(=O)C3CCCN(C(=O)CCc4ccccc4)C3)cc2)c1)C1CC1 (configuration not stated)
(54) CC(C)(C)Nc1nc2nonc2nc1NC(C)(C)C
(55) Cn1cnnc1SCC(=O)NC1CCCN(Cc2ccccc2F)C1 (configuration not stated)
(56) Cc1c(N)cccc1[N+](=O)[O-]

assay / compound	49	50	51	52	53	54	55	56
VACV mCherry inh	?	-18%	i	-17%	?	-29%	-3%	-2%
VACV Venus inh	-30%	-9%	-8%	-13%	-7%	-28%	-14%	-20%

As entered above.
Under VACV Venus inh, CN(C(=O)c1cccc(NC(=O)Cc2ccc(NC(=O)C3CCCN(C(=O)CCc4ccccc4)C3)cc2)c1)C1CC1 (configuration not stated) has the entry -7%
Under VACV Venus inh, COc1ccccc1N1C(=O)CC(Sc2ccccc2N)C1=O (configuration not stated) has the entry -8%
Under VACV Venus inh, Cn1cnnc1SCC(=O)NC1CCCN(Cc2ccccc2F)C1 (configuration not stated) has the entry -14%
Under VACV mCherry inh, Cc1c(N)cccc1[N+](=O)[O-] has the entry -2%

The listing continues:
(57) Cc1cc(=O)[nH]c(SCC(=O)Nc2cccc(S(=O)(=O)N3CCOCC3)c2)n1
(58) Cc1ccc(OCC(=O)c2cc(C)n(Cc3ccco3)c2C)c([N+](=O)[O-])n1
(59) Cc1ccc(F)cc1-c1nc(NCC2CC2)nc2ccsc12
(60) CN(CC(=O)Nc1ccc(N2CCOCC2)cc1)C(=O)CCc1ccccc1Cl
(61) CCOc1cc(-c2sc(Nc3ccccc3)n[n+]2-c2ccc(F)cc2)ccc1OC
(62) COC(=O)c1ccc(CNC(=O)Cn2cnc3c(OCc4ccccc4)ncnc32)cc1
(63) CC1(C)CC(NC(=O)c2ccc(F)cc2)CC(C)(C)N1
(64) CCc1cccc(C)c1NC(=O)CO/N=C(\C)c1cc2ccccc2o1

assay / compound	57	58	59	60	61	62	63	64
VACV mCherry inh	-4%	-4%	28%	i	-2%	i	i	-5%
VACV Venus inh	-9%	-8%	-13%	-20%	-16%	-3%	-8%	?

(65) O=C(CN1CCN(c2ccccn2)CC1)Nc1ccc(Br)cc1
(66) COC(=O)c1ccc(N2CCN(S(=O)(=O)c3c(C)cc(C)cc3C)CC2)c([N+](=O)[O-])c1
(67) Cc1noc(C)c1S(=O)(=O)N1CCC2(CC1)OCCO2
(68) Cc1cc(-c2csc(NC(=O)c3ccc(S(=O)(=O)N(C)C)cc3)n2)c(C)n1-c1ccccc1
(69) Brc1ccc(CSc2ccc3nnc(-c4ccccn4)n3n2)cc1
(70) CCCCNC(=O)c1cccc(-n2c(C)nc3cccnc32)c1
(71) C/C(=C\c1ccccc1)CN1CCN(c2ccccc2F)CC1
(72) Cc1ccc(N2CC(C(=O)OCC(=O)NNC(=O)c3ccccc3)CC2=O)cc1 (configuration not stated)

assay / compound	65	66	67	68	69	70	71	72
VACV mCherry inh	-5%	-3%	7%	-4%	-17%	-16%	-19%	-13%
VACV Venus inh	-13%	-1%	-6%	-13%	-11%	-10%	-7%	-14%

(73) Cc1ccc(NC(=O)CN(C)CC(=O)Nc2ccc(N3CCOCC3)cc2)c([N+](=O)[O-])c1
(74) Cc1ccc(C)c(NC(=O)CCC(=O)NNC(=O)c2cccs2)c1
(75) CCN(CCNC(=O)c1cc(C)nn1-c1ccccc1)c1ccccc1
(76) Cc1ccc(-n2nc3c(c2NC(=O)c2ccc(Br)o2)CSC3)c(C)c1
(77) CCOC(=O)c1ccc(-n2cnc(-c3ccc([N+](=O)[O-])cc3)c2)cc1
(78) O=C(COC(=O)/C=C/c1ccccc1)Nc1cc(C(F)(F)F)ccc1N1CCOCC1
(79) CCCOc1ccc(-c2cccc(NS(=O)(=O)c3cc(OC)ccc3OC)c2)nn1
(80) CC12CC3CC(C)(C1)CC(C(=O)N1CCN(C(=O)C4CCCO4)CC1)(C3)C2 (configuration not stated)

assay / compound	73	74	75	76	77	78	79	80
VACV mCherry inh	-4%	-16%	i	-13%	4%	-27%	-13%	-21%
VACV Venus inh	-2%	-6%	-14%	-2%	-4%	6%	-19%	-18%

(81) COc1ccc2c(c1)C(CC(C)=O)N(c1ccc(-c3cnc(OC)nc3)cc1)C(c1ccsc1)=C2 (configuration not stated)
(82) O=C(CN(c1ccc2c(c1)OCCO2)S(=O)(=O)c1ccccc1)NCc1ccco1
(83) Cc1cc(NC(=O)C2CCC2)n(-c2ccccn2)n1
(84) COC(=O)CSc1nnc(-c2ccccn2)n1Cc1ccco1
(85) Cc1ccc(-n2cnnn2)c(S(=O)(=O)N2CCOCC2)c1
(86) COc1ccc(Cl)cc1NC(=O)CN1C(=O)CN=C(c2ccccc2)c2cc(Cl)ccc21
(87) COc1ccccc1CCNc1ncnc2sc(C(=O)N3CCCC3)c(C)c12
(88) Cc1ccc(S(=O)(=O)Nc2cccc3c2CCCC3)cc1

assay / compound	81	82	83	84	85	86	87	88
VACV mCherry inh	15%	i	i	-11%	-3%	-15%	-12%	-11%
VACV Venus inh	-10%	-15%	-16%	-13%	1%	-21%	-8%	1%
